# Assay outcomes deposited in PubChem by ICCB-Longwood Screening Facility, Harvard Medical School.
# Polio RdRp inh: poliovirus RdRp elongation inhibitors, primary screen, biochemical, fluorescence polarization, total intensity; poliovirus polymerase elongation; hits give low values; % elongation, % (compound at 16.7 µg/mL); 150,000 tested, 0.66% active; in the data active = % elongation below about 90%; note: some results filed as inactive read as strong as hits
# Target sequence (P03300 1749-2209 limits assumed): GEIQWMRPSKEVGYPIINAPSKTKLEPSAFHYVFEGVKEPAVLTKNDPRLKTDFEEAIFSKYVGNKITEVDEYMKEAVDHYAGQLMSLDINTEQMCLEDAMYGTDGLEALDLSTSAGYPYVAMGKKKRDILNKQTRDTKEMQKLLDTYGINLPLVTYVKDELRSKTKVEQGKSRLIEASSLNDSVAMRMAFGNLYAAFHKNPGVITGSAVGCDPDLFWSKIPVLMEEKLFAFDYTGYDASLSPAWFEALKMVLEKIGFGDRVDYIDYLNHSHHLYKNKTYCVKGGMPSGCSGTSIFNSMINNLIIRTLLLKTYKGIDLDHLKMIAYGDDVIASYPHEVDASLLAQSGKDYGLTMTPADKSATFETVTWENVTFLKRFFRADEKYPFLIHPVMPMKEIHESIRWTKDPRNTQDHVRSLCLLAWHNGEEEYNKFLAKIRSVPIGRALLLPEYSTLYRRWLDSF
# Polio RdRp inh intensity: further read-out of Polio RdRp inh, marked with its call; % elongation; measured here: total intensity read-out; formula for this scale not given here;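 total fluorescence in place of polarization; lower means less elongation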
# * hit, by the source's call. Not all compounds are listed; count on the stated rates, not on these rows.
# Every second line gives: Polio RdRp inh	Polio RdRp inh intensity
> Cc1ccc(C)c(NC(=O)Cn2cnc3c(oc4ccccc43)c2=O)c1
    110.0	114.0
> COc1ccc(-c2onc(C)c2C)cc1S(=O)(=O)Nc1cccc(C#N)c1
    120.0	120.0
> O=C(CCCn1c(=O)c2ccccc2n(CC(=O)Nc2ccc(F)cc2F)c1=O)NCc1ccccc1Cl
    109.0	110.0
> COc1cccc(CC(=O)Nc2ccc3nc(N4CCC(C)CC4)cc(C)c3c2)c1
    104.0	104.0
> CN1C(=O)C2(c3ccccc31)N(c1cccc(C(F)(F)F)c1)C(=O)CS2(=O)=O (stereo not given)
    102.0	107.0
> Cc1ccc(-c2cc(C(=O)N3CCN(c4ccccc4)CC3)c3ccccc3n2)cc1C
    113.0	103.0
> COc1cc(NC(=O)CCc2c(C)nc3nc(-c4cc(OC)cc(OC)c4)nn3c2C)cc(OC)c1
    103.0	102.0
> COc1ccc(-n2nc3c(N4CCCC(C(=O)NCCc5ccccc5C)C4)nnc(C)c3c2C)cc1 (stereo not given)
    150.0	232.0
> COc1cccc(Cn2cc(C(=O)c3ccccc3)c(=O)c3cc4c(cc32)OCO4)c1
    106.0	107.0
> COc1ccc(N2C(=O)CSC23C(=O)N(Cc2ccccc2F)c2ccccc23)cc1Cl (stereo not given)
    104.0	103.0
> COCCNC(=O)c1ccc2c(c1)N(Cc1cccc(Cl)c1)C(=O)c1ccccc1S2=O (stereo not given)
    104.0	112.0
> Cc1ccccc1CS(=O)(=O)Cc1ccc(C(=O)NCCc2ccc(Cl)cc2)o1
    116.0	104.0
> O=C(CCn1cccn1)Nc1cccc(C(F)(F)F)c1
    107.0	111.0
> Cc1ccc(NC(=O)Cn2nnc(-c3ccccc3)n2)c(C)c1
    105.0	108.0
> CCOc1ccc(-c2nc(CSCC(=O)NCc3ccc(Cl)cc3)c(C)o2)cc1
    106.0	106.0
> CC(C)Oc1ccc(C(=O)Nc2nc3c(s2)CC(C(C)(C)C)CC3)cc1 (stereo not given)
    109.0	108.0
> Cn1c(=O)c2nc3ccc(NC(=O)C(F)(F)F)cc3nc2n(C)c1=O
    88.0	134.0
> CCOC(=O)c1ccccc1NC(=O)CSc1ncc2c(n1)-c1ccccc1N(CC)S2(=O)=O
    115.0	121.0
> CCc1ccc(N(CC)C(=O)c2cc3c(=O)oc4ccc(C)cc4c3s2)cc1
    106.0	110.0
> Cc1cccc(NC(=O)c2sc3nc4c(cc3c2N)CN(Cc2ccccc2)CC4)c1
    107.0	111.0
> Cc1ccc(-c2cc(C(=O)N(Cc3ccc(C(C)(C)C)cc3)Cc3ccco3)no2)cc1
    109.0	98.0
> CCC(C(=O)Nc1cc(-c2nc3cccnc3s2)ccc1C)c1ccccc1 (stereo not given)
    108.0	111.0
> O=C(COc1cccc(Cl)c1)N1CCC(c2nc3ccccc3s2)CC1
    109.0	114.0
> CCCN(CCC)C(=O)Cn1c(=O)n(Cc2ccc(C(=O)NCCc3ccc(OC)c(OC)c3)cc2)c(=O)c2ccccc21
    109.0	111.0
> CCOc1ccc(C(=O)Nc2cccc(OCc3cc(=O)n4cc(C)sc4n3)c2)cc1
    109.0	109.0
> COc1cccc(-n2c(SCC(=O)Nc3ccc4c(c3)OCO4)nc3c([nH]c4ccccc43)c2=O)c1
    115.0	119.0
> CC(C)Oc1ccc(CNS(=O)(=O)c2cnc(N)nc2)cc1
    107.0	101.0
> CCOc1cccc2sc(NC(=O)c3ccc(S(=O)(=O)N4CCCCC4C)cc3)nc12 (stereo not given)
    100.0	108.0
> CCS(=O)(=O)N1CCC(n2c(C)nc3cccnc32)CC1
    107.0	113.0
> CCCCCOc1ccccc1CN1C(=O)C(=O)c2cc(C)ccc21
    104.0	100.0

# Shown as labelled records: entries from further up.
Structure: CCOC(=O)c1ccccc1NC(=O)CSc1ncc2c(n1)-c1ccccc1N(CC)S2(=O)=O
  Polio RdRp inh: 115.0
  Polio RdRp inh intensity: 121.0
Structure: Cc1ccc(C)c(NC(=O)Cn2cnc3c(oc4ccccc43)c2=O)c1
  Polio RdRp inh: 110.0
  Polio RdRp inh intensity: 114.0
Structure: CC(C)Oc1ccc(C(=O)Nc2nc3c(s2)CC(C(C)(C)C)CC3)cc1 (stereo not given)
  Polio RdRp inh: 109.0
  Polio RdRp inh intensity: 108.0

# New compounds follow
# Every second line gives: Polio RdRp inh	Polio RdRp inh intensity
> Cn1c(=O)oc2cc(S(=O)(=O)CCC(=O)NCCc3ccc(Cl)cc3)ccc21
    111.0	107.0
> COCCCNC(=O)C1CCN(c2cc(C)nc3c(-c4ccc(Cl)cc4)c(C)nn23)CC1
    108.0	112.0
> COC(=O)c1ccc(OC)c(Cn2c(=O)n(Cc3ccccc3)c(=O)c3c2c2cc(OC)ccc2n3C)c1
    104.0	110.0
> CCC1CN(C(=O)NCc2ccc(C)cc2)c2cc(C)ccc2O1 (stereo not given)
    112.0	117.0
> CC(C)Oc1ccc(CNC(=O)c2ccccc2NC(=O)c2nsc3ccccc23)cc1
    107.0	105.0
> Cc1ccc(Cl)cc1N1CCN(S(=O)(=O)c2ccc3c(c2)CCCN3C(=O)C2CCC2)CC1
    109.0	112.0
> COc1ccc2c(c1)Cc1sc(NC(=O)c3cccc(F)c3)nc1-2
    90.0	93.0
> O=c1oc2ccc3ccccc3c2cc1-c1nnc(Nc2cc(C(F)(F)F)ccc2Cl)s1
    110.0	108.0
> Cc1cc(C)cc(OCC(=O)Nc2nonc2-c2ccc(Br)cc2)c1
    101.0	94.0
> CCCCn1c(=O)n(-c2cc(OC)ccc2OC)c(=O)c2c3c(sc21)CN(C(C)=O)CC3
    102.0	104.0
> Cc1cc(Nc2cccc(C(F)(F)F)c2)nc2ccc(NC(=O)c3ccc(N(C)C)cc3)cc12
    105.0	106.0
> CSc1cccc(Nc2cc(C(=O)NCCCN(Cc3ccccc3)C(C)C)c3ccccc3n2)c1
    103.0	111.0
> Cc1cc2[nH]c(=O)c(=O)[nH]c2cc1S(=O)(=O)N1CCN(c2cccc(C)c2C)CC1
    99.0	84.0
> CCN(CC)c1ccc(NC(=O)CSc2nnc(C)c(=O)[nH]2)cc1
    97.0	95.0
> CCCCNC(=O)c1ccccc1NC(=O)CN(c1ccccc1)S(=O)(=O)N(C)C
    109.0	110.0
> COc1ccccc1NC(=O)CSc1nnc2c3ccccc3n(C(C)C)c2n1
    104.0	104.0
> COc1ccccc1-c1nc(CNC(=O)NC2CCCCC2)c(C)o1
    108.0	109.0
> CCOC(=O)c1cc(-c2ccccc2)n(CCCC(=O)Nc2ccc(C)cc2C)c1C
    112.0	109.0
> COc1ccc(-c2nn(-c3ccc(F)cc3F)c3c2cnc2ccc(F)cc23)cc1
    111.0	110.0
> COc1cccc2sc(N(Cc3cccnc3)C(=O)Cc3ccccc3)nc12
    103.0	106.0
> O=C(CSc1nc2ccccc2n1Cc1ccccc1Cl)NCc1ccccc1
    105.0	109.0
> O=C(c1ccccc1Br)N1CCC(c2nc3ccccc3o2)CC1
    107.0	113.0
> O=C(Nc1ccccc1)N(Cc1ccc2c(c1)OCO2)C1CCN(Cc2ccccc2)CC1
    114.0	114.0
> CSc1ncc(C(=O)NCc2ccc(C)cc2)c(C)n1
    109.0	113.0
> COc1ccc(N2CCN(C(=O)C3CCN(c4nc5ccc(C)cc5[nH]4)CC3)CC2)cc1
    109.0	112.0
> CCn1cc2nc(SCc3cccc(C(F)(F)F)c3)n(Cc3ccc(Cl)cc3)c(=O)c2n1
    108.0	97.0
> COCCCn1c(=N)c(C(=O)NC2CCCCC2)cc2c(=O)n3ccccc3nc21
    116.0	114.0
> CCN1c2ccccc2-c2nc(SCC(=O)Nc3cc(F)ccc3F)ncc2S1(=O)=O
    113.0	108.0
> Cc1ccc(NC(=O)c2ncn(-c3ccccc3)n2)c(Cl)c1
    106.0	112.0
> O=C(c1ccc(Cl)cc1)N1CCC(c2ccncc2)CC1
    100.0	105.0

# 4 compounds from above, ordered by formula weight, lowest first.
# Every second line gives: Polio RdRp inh	Polio RdRp inh intensity
> CSc1ncc(C(=O)NCc2ccc(C)cc2)c(C)n1
    109.0	113.0
> COc1ccccc1NC(=O)CSc1nnc2c3ccccc3n(C(C)C)c2n1
    104.0	104.0
> CCCCNC(=O)c1ccccc1NC(=O)CN(c1ccccc1)S(=O)(=O)N(C)C
    109.0	110.0
> CSc1cccc(Nc2cc(C(=O)NCCCN(Cc3ccccc3)C(C)C)c3ccccc3n2)c1
    103.0	111.0

# The results go on.
Compound,Polio RdRp inh,Polio RdRp inh intensity
COc1ccc(C)cc1N(CC(=O)N1CCC(C)CC1)S(=O)(=O)c1ccc(C)cc1,101.0,110.0
COCCn1c(SCC(=O)c2ccc(OC)cc2)nc2cc(C(=O)NC3CCCC3)ccc2c1=O,117.0,115.0
COc1ccc(Br)c2c1-c1nc(NC(=O)c3ccccc3F)sc1C2,100.0,103.0
CCOc1ccc(CNC(=O)Cc2ccc(NC(=O)N3CCCCc4ccccc43)cc2)cc1OC,109.0,109.0
N#Cc1nc(/C=C/c2ccc(F)cc2)oc1NC1CCCCC1,109.0,108.0
Cc1cc(C)cc(NC(=O)NCc2c(-n3cccc3)sc3c2CCCC3)c1,110.0,111.0
O=C(c1ccc2c(Cl)c3c(nc2c1)CCCC3)N1CCN(c2ccccc2F)CC1,108.0,111.0
Cc1cccc(C(=O)Nc2nnc(S(=O)(=O)N3c4ccccc4CC3C)s2)c1 (stereo not given),107.0,109.0
COc1ccc(C2CC(=O)c3cc(-c4nc(-c5cccc([N+](=O)[O-])c5)cs4)c(=O)n(-c4ccc(OC)cc4)c3C2)cc1 (stereo not given),105.0,108.0
O=C(CN1C=NS(=O)(=O)c2ccccc21)Nc1ccc(F)cc1,104.0,103.0
Cc1ccc2sc(NC(=O)c3ccc4c(c3)OCCO4)nc2c1C,110.0,112.0
CCN(CCCNC(=O)c1ccc(Sc2ccc(Cl)cc2)c(NC(C)=O)c1)c1cccc(C)c1,111.0,114.0
CCc1ccc(CNC(=O)CN2CCSc3ccccc32)cc1,105.0,96.0
COc1ccc(Cl)cc1NC(=O)CSc1nc(-c2cccs2)cc(C(F)(F)F)n1,101.0,102.0
COc1cccc2c1cc1c(=O)n(CC(=O)N3CCN(c4cccc(C(F)(F)F)c4)CC3)nc(C)n12,99.0,106.0
Cc1ccccc1CN1C(=O)C2(c3ccccc31)N(c1ccccc1)C(=O)CS2(=O)=O (stereo not given),111.0,102.0
CCCn1c(=N)n(CC(O)COc2ccccc2OC)c2ccccc21 (stereo not given),108.0,108.0
COc1ccc2c(c1)c1c(c(=O)n(-c3cccc(C)c3)c(=O)n1CC(=O)Nc1c(C)cc(C)cc1C)n2C,106.0,105.0
Cc1cc(C)c(NC(=O)CSc2nc3ccccc3nc2N2CCCCC2)c(C)c1,107.0,113.0
CC(C)C(=O)Nc1nc2c(s1)CC(C(C)(C)C)CC2 (stereo not given),112.0,107.0
Cc1c(C(=O)N2CCOCC2)oc2c1-c1nn(CC(=O)NCc3ccccc3)cc1CC2,109.0,106.0
COCCNC(=O)CCn1c(=O)c2cc(OC)c(OC)cc2n(CC(=O)Nc2ccccc2OC)c1=O,104.0,104.0
CCc1ccc2oc(-c3cccc(NC(=O)C(C)(C)Oc4ccc(Br)cc4)c3)nc2c1,107.0,109.0
CCCC(=O)N1c2ncnn2C2(CCCCC2)[C@@H]2CCCC[C@@H]21,99.0,104.0
COc1ccc2c(CNCCc3ccccc3)c(C(=O)O)n(Cc3cccc(F)c3)c2c1,103.0,102.0
CCCc1nn2c(=O)cc(COC(=O)c3cccc(NC(=O)c4ccc(OCC)cc4)c3)nc2s1,110.0,110.0
Cc1ccc(-c2nc3cccc(C)n3c2Nc2ccc3c(c2)OCCO3)cc1,105.0,106.0
CCN(Cc1ccccc1)Cc1c(O)ccc2oc(C)c(C(=O)Nc3ccccc3C)c12,105.0,101.0
COc1cccc(OC)c1C(=O)Nc1nnc(C)s1,102.0,101.0
COc1ccc(S(=O)(=O)N(CC(=O)Nc2ccc3c(c2)OCO3)c2ccc(C)cc2)cc1,105.0,105.0
COc1ccc(C2=CC(c3ccc(F)cc3)n3ncc(C(=O)Nc4ccc(C)cc4)c3N2)cc1 (stereo not given),111.0,114.0
CN(C)S(=O)(=O)N(CC(=O)NCCSc1ccc(Cl)cc1)c1ccccc1,106.0,107.0
CCc1cccc(C)c1NC(=O)C1=C(C)C(=O)OC12CCC(C)CC2 (stereo not given),107.0,110.0
COc1ccc(-c2cc(C(=O)Nc3cnn(Cc4ccc(F)cc4)c3)no2)cc1OC,106.0,109.0
Cc1ccc(Cn2c(C)c(CNC(C)c3ccccc3)c(C(=O)O)c2C)cc1 (stereo not given),110.0,104.0
CCCCN(Cc1ccccc1)C(=O)c1oc(=O)c2ccccc2c1-c1ccc(C)cc1,109.0,105.0
CCCCn1cc(S(=O)(=O)c2ccc(CC)cc2)c(=O)c2cc(F)c(N3CCOCC3)cc21,105.0,106.0
COc1ccc(NC(=O)CC2C(=O)N(c3ccccc3)C(=O)N2C2CCCCC2)cc1 (stereo not given),108.0,107.0
Cn1cnc2c(=O)oc3ccc(S(=O)(=O)Nc4ccc(F)cc4)cc3c21,98.0,99.0
Cc1cccc(-c2nc(C)c(CCNC(=O)C(=O)Nc3ccc(C)c(C)c3)s2)c1,104.0,107.0
CCc1ccccc1NC(=O)Cn1c(=O)n(Cc2ccc3c(c2)OCO3)c(=O)c2ccc(C(=O)NC3CCCCC3)cc21,107.0,105.0
Cc1ccc2nc(Cl)c3cc(C(=O)NC4CCC(C)CC4)sc3c2c1 (stereo not given),102.0,108.0
COc1ccc(CNC(=O)c2cc3ccccn3n2)c(OC)c1,103.0,108.0
COc1ccc2cc3cc(C(=O)NCCc4ccccc4)sc3nc2c1Cl,101.0,111.0
Cc1nnc(NCc2ccccc2)c2c1nnn2Cc1ccc(F)cc1,103.0,91.0
